gsp ag – qHTS for Agonist of gsp, the Etiologic Mutation Responsible for Fibrous Dysplasia/McCune-Albright Syndrome: qHTS | gsp mutant cells, cAMP HTRF, 30 min; control for the full effect not named in the record | Potency, µM (titrated, usually from 76.9 µM), for inactives: at the highest dose activation (cAMP increase), actives largely listed as activators | 340,000 compounds, 0.13% hits | AID 624287, 2012; active = well fitted activation curve with a large enough effect; inconclusive = small, poorly fitted or top-dose-only effect, or another doubt; inactive = no such curve, though single readings can be large or run the other way; cell line not stated here;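 also: phosphodiesterase inhibitor Ro 20-1724 added with compounds to block cAMP breakdown; potency is read from the fitted curve at half-maximal effect; nearly all actives have a fitted effect of over 60% in size; about a fifth of the inactives were tested at one dose only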
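Cells in DMEM/10% FBS with G418 were pretreated with compounds in DMSO plus […] (300 uM stock) for 30 min at 37C. cAMP was measured by HTRF (cAMP-d2 plus anti-cAMP antibody-K) after 30 min at room temperature.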
CtBP-E1A inh – qHTS Assay for Inhibitors of the CtBP/E1A Interaction; AID 651724, 2012; activity change, % (test concentration not listed); 340,000 compounds, 0.49% hits; CtBP / adenovirus E1A interaction (AlphaScreen); AlphaScreen GST-E1A/His-CtBP binding, 1536-well; stronger effect = lower value; control for the full effect not named in the record; in the data active means activity change below about -65%; inconclusive means about -30% to -65%; inactive means above about -30%; also: % is scaled to controls: 0 for no effect and ±100 for the full control effect
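AlphaScreen with 125 nM GST-E1A and 125 nM His-CtBP (5X stocks) in Tris pH 8.0, 300 mM NaCl, BSA, Tween 20, TCEP. Compounds preincubated 2 h at 37 deg C, then glutathione donor/nickel acceptor beads added for 1 h at 37 deg C in dark.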
D2 agonist – Beta-Arrestin HTS for Positive Allosteric Modulators of the Human D2 Dopamine Receptor: Agonists; D(2) dopamine receptor (Homo sapiens), P14416; DiscoveRx PathHunter D2 beta-arrestin, luminescence, 90 min; 100% = 57 uM dopamine signal; activation, % (no concentration beside the values); 360,000 compounds, 0.084% hits; AID 624465, 2012; in the data active = activation above about 40%; inconclusive = about 15% to 40%; inactive = below about 15%; also: compound concentration not given in the record; the text of the record calls up to 30% inactive
Target sequence (P14416 whole entry, looked up): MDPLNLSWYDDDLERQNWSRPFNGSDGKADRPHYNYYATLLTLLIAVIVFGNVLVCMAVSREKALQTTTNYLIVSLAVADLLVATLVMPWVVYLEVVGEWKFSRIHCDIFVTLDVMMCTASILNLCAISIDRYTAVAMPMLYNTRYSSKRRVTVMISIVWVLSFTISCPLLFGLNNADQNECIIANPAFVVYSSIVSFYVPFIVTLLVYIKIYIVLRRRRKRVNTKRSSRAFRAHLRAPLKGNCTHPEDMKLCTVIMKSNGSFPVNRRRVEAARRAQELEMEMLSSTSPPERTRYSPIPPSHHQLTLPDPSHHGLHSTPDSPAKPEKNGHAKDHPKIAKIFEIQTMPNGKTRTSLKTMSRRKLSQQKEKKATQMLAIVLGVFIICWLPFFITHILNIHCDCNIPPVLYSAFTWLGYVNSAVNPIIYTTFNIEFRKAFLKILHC
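DiscoveRx PathHunter D2 beta-arrestin cells (2,100/well) attached overnight, then compound-stimulated 90 min at 37 C in HBSS/10 mM HEPES/0.1% Tween-20 buffer; beta-galactosidase complementation read by luminescence after 1 h at ambient temperature. Dopamine 57 uM final (EC100) as control.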
D2 potentiator – Beta-Arrestin HTS for Positive Allosteric Modulators of the Human D2 Dopamine Receptor: Potentiators; potentiation, % (no concentration beside the values); 360,000 compounds, 0.23% hits; DiscoveRx D2 beta-arrestin cells, luminescence, 90 min; 100% = 57 uM dopamine signal; D(2) dopamine receptor (Homo sapiens), P14416; active = potentiation of 50% or more; inconclusive = 30% to 50%; inactive = 30% or less;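 also: compound concentration not given in the record; tested on top of an EC20 dose of dopamine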
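PathHunter beta-arrestin assay in DiscoveRx D2 cells. Compounds were added with an EC20 of dopamine (50 nM final) for 90 min at 37 deg C. Luminescence was read 1 h after detection reagent, with 57 uM dopamine as the EC100 control.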
gsp antagonist – qHTS for Antagonists of gsp, the Etiologic Mutation Responsible for Fibrous Dysplasia/McCune-Albright Syndrome: qHTS | gsp-mutant cells, cAMP HTRF, 30 min; control for the full effect not named in the record | AID 624288, 2012 | Potency, µM (doses to about 76.9 µM), inactives show at the top dose activity change, negative = inhibition, most hits filed as inhibitors | 340,000 compounds, 0.4% hits; active = falling curve of any shape with a large fitted effect; inconclusive = falling curve, mostly with a smaller effect; inactive = flat or rising curve; cell line not stated here;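 also: intracellular cAMP measured with PDE inhibitor Ro 20-1724 present during compound exposure; potency is read from the fitted curve at half-maximal effect; % is scaled to controls: 0 for no effect and ±100 for the full control effect; nearly all actives have a fitted effect of over 65% in size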
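HTRF cAMP measurement after 30 min RT detection following 30 min, 37C compound treatment alongside […] (added as 300 uM solution) in G418-selected cells seeded at 2000/well and grown 16–24 h.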
Six1-Eya2 blk – qHTS Assay for Inhibitors of the Six1/Eya2 Interaction. Homeobox protein SIX1 (Homo sapiens) + Protein phosphatase EYA2 (Homo sapiens), …. AlphaScreen GST-Six1/His-Eya2 binding, biochemical; stronger effect = lower value; control for the full effect not named in the record. activity change, % (concentration not given with the values). 360,000 compounds, 0.56% hits; in the data active = activity change below about -65%; inconclusive = about -30% to -65%; inactive = above about -30%; also: % is scaled to controls: 0 for no effect and ±100 for the full control effect
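GST-Six1 + His-Eya2 (5X stock: 250/500 nM); Tris pH 8.0, 300 mM NaCl, 0.05% BSA, 0.02% Tween 20; GSH donor/Ni acceptor beads; 1 h 37 °C dark; AlphaScreen readout.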
The depositor's hits bear a star; ? = inconclusive; nt = not tested or not shown; [ ] = another dose, or the depositor's remark.

Values run as follows: gsp ag | CtBP-E1A inh | D2 agonist | D2 potentiator | gsp antagonist | Six1-Eya2 blk
O=C(COC(=O)CNC(=O)c1ccccc1F)Nc1ccc2c(c1)OCCO2
→ 9%[15.4 µM] | -5 | -5.9 | -9 | 5% | 2
COc1ccc(S(=O)(=O)NCC2CCCN(C(=O)CCSC)C2)cc1 (stereo not drawn)
→ -12% | 9 | -3.5 | -4 | 11% | 4
CC1=NN(c2cccc(C(=O)O)c2)C(=O)/C1=C\C=C\c1ccco1
→ 26%[15.4 µM] | 3 | -5.3 | -11 | ? | ?
N#CCCN(C(=O)COC(=O)c1cc2ccccc2oc1=O)c1ccccc1
→ -72% | 0 | 1.7 | -6 | 2% | 25
COc1ccc2[nH]cc(S(=O)(=O)c3ccc(F)cc3)c(=O)c2c1
→ 2% | -10 | -2.5 | -1 | -4% | -5
CC1=C(C(=O)OC(C)C)C(c2ccc(Br)s2)NC(=O)N1 (stereo not drawn)
→ -29% | 43 | 0.0 | -8 | 4% | 11
CCC(=O)Nc1c(-c2ccccc2Cl)c(=O)c2ccccc2n1CC
→ 16µM* | 0 | -4.3 | -3 | 8% | 1
CCCC[C@@H]1CNC(=S)N1CCC12CC3CC(CC(C3)C1)C2
→ -44%[inhibitor] | -4 | -2.9 | -6 | -3% | -8
C=C(C)c1nc(Oc2ccccc2)nc(Oc2ccccc2)n1
→ -7% | 3 | 0.3 | -7 | -15% | 8
CC(C)C[C@@H](CN1CCCC1CN1C(=S)NC[C@@H]1Cc1ccc(O)cc1)N1C[C@H](Cc2ccc(O)cc2)N(CC2CCCCCC2)C1=S (stereo partly drawn)
→ nt | -12 | 0.5 | 1 | -3% | -8
Cc1cc(C)n2nc(C(=O)OCC(=O)N(Cc3ccccc3)C(C)C)nc2n1
→ 4%[15.4 µM] | 7 | -1.1 | 3 | -1% | 3
O=C(O)CCN1C(=O)CC2(CCCCC2)C1=O
→ ? | 1 | -0.8 | -3 | 2% | -2
Cc1ccc(OCCCC(=O)Nc2nc3ccccc3[nH]2)cc1
→ 11%[15.4 µM] | 13 | 5.3 | 8 | 2% | -12
N#C/C(=C\c1c(N2CCC(C(N)=O)CC2)nc2ccccn2c1=O)C(=O)NCc1ccco1
→ 36%[15.4 µM] | 0 | -0.8 | 11 | 24% | -5
C[C@@H]1CN([C@H](C)CO)C(=O)Cc2cc(NC(=O)CCC(F)(F)F)ccc2O[C@@H]1CN(C)C(=O)NC1CCCCC1
→ -24% | 5 | 0.0 | 1 | 10% | 31

Nothing new here: 2 of the compounds above.
Values run as follows: gsp ag | CtBP-E1A inh | D2 agonist | D2 potentiator | gsp antagonist | Six1-Eya2 blk
N#C/C(=C\c1c(N2CCC(C(N)=O)CC2)nc2ccccn2c1=O)C(=O)NCc1ccco1
→ 36%[15.4 µM] | 0 | -0.8 | 11 | 24% | -5
C[C@@H]1CN([C@H](C)CO)C(=O)Cc2cc(NC(=O)CCC(F)(F)F)ccc2O[C@@H]1CN(C)C(=O)NC1CCCCC1
→ -24% | 5 | 0.0 | 1 | 10% | 31

More entries:
Values run as follows: gsp ag | CtBP-E1A inh | D2 agonist | D2 potentiator | gsp antagonist | Six1-Eya2 blk
CCNC(=S)N1CCN(Cc2ccccc2)CC1
→ ? | 11 | -0.6 | -2 | 15% | 1
NC(=O)CSc1nc(C23CC4CC(CC(C4)C2)C3)nc2ccccc12
→ 2% | nt | 12 | ? | 1% | -2
CN(C)CCN(C(=O)c1ccc(S(=O)(=O)N2CCCC2)cc1)c1nc2ccc(Br)cc2s1
→ ? | 8 | -0.5 | -22 | ? | 2
COC(=O)C1=C(C)N(Cc2ccccc2)C(=NCCc2cccnc2)N[C@H]1c1ccccc1
→ nt | 0 | -3.3 | -10 | 6% | 1
C=CCNC(=O)c1onc(CS(=O)(=O)c2cc(C)cc(C)c2)c1C(=O)NCC=C
→ nt | -1 | -1.5 | -4 | -5% | 5
COc1cc2c(cc1OC)/C(=C/C(=O)c1ccc(OC)c([N+](=O)[O-])c1)NCC2
→ ? | -22 | 3.5 | -3 | 12% | -14
C=CCSc1nc2c(c(=O)[nH]c(=O)n2C)n1C(C)C
→ -5% | 4 | -2.4 | -2 | -1% | 11
O=C(Nc1cccc(OC(F)(F)F)c1)C1Cc2c(-c3ccccc3Oc3ccccc3)ccnc2O1 (stereo not drawn)
→ nt | 0 | 3.1 | -6 | nt | 1
O=C(Nc1ccc2c(c1)CCC2)c1ccccc1Br
→ 10%[15.4 µM] | 3 | 2.7 | -7 | -19% | 15
Cc1cccc(C)c1NC(=O)C1c2cccc[n+]2CC(=O)N1Cc1ccc2c(c1)OCO2 (stereo not drawn)
→ -37% | -9 | -3.0 | -4 | 2% | 0
CN(C)c1ccc(C(=O)C(O)c2ccccc2)cc1 (stereo not drawn)
→ -3% | 5 | -0.1 | -5 | 18% | 2
CC(=O)Nc1ccc(NS(=O)(=O)c2ccc(CN3C(=O)c4cccnc4C3=O)cc2)cc1
→ -40%[inhibitor] | -18 | -2.1 | 8 | ? | -3
COC(=O)c1cc(/C=C/c2ccccc2)on1
→ 14% | -1 | 0.1 | -6 | 2% | 16
CN(c1ccc(OCC(=O)NCCc2ccccc2)cc1)S(=O)(=O)c1ccc(Cl)cc1
→ 3% | 4 | -3.4 | -24 | -26% | 3
C=CCN(CC=C)C(=O)c1cccc(OC2CCN(CC(C)(C)C)CC2)c1
→ 7% | 9 | -5.1 | -3 | 7% | 1
O=C(Nc1ccc(N2C(=O)C3C4C=CC(C4)C3C2=O)cc1)Nc1nncs1 (stereo not drawn)
→ 11% | 0 | 1.9 | -3 | -6% | 7
Cc1ccc(-n2nc3ccc(N)cc3n2)c(C)c1
→ 15% | nt | -3.4 | -27 | 4% | 5
Nc1c(N=Nc2ccccc2F)c(=O)[nH]n1-c1ccccc1
→ 0% | 0 | -5.6 | -46 | -14% | -11
COC(=O)c1ccc(COc2cccc3c2CCN(Cc2cccc(C)c2)C3=O)o1
→ ? | 0 | 1.2 | 0 | -58% | -15
COC(=O)c1cn(C(=O)c2cc(OC)c(OC)c(OC)c2)c2ccccc12
→ -23% | 4 | 6.3 | 3 | 26% | 3
O=C(NCc1ccc(F)cc1)c1cc(C2CCCN(C(=O)c3ccccn3)C2)on1 (stereo not drawn)
→ nt | 0 | -5.5 | -6 | nt | 11
CCN1CCN(c2ccc(NC(=O)COc3ccccc3Cl)cc2)CC1
→ -43%[inhibitor] | -3 | -3.6 | -15 | -2% | -6
CCCn1nc2cc(C(=O)NCc3ccc(OC)cc3)ccc2c1OCC
→ 3% | 5 | 2.5 | -3 | 5% | 0
CCCc1cc(=O)[nH]c(Nc2ccc(O)cc2)n1
→ -4% | 7 | -0.9 | -3 | -14% | -2
O=C(ONC1=NCCCCC1)c1ccc(Cl)cc1
→ 0% | 4 | ? | ? | 6% | 0
Cc1cc(C)cc(-c2nnc(SCC(=O)NCC3CCCO3)o2)c1 (stereo not drawn)
→ 2%[15.4 µM] | 1 | 0.6 | -8 | -11% | 12
Cc1csc(NC(=O)CCC(=O)N(CC(=O)NC2CCCC2)Cc2ccco2)n1
→ -1% | -6 | -1.5 | -5 | 5% | -1
CCOC(=O)CSc1ccc2nnc(-c3ccncc3)n2n1
→ ? | -15 | -5.8 | -11 | 9% | -21
CCn1cc(CN2CCC(n3nccc3NC(=O)CCOc3ccccc3)CC2)cn1
→ 10% | -1 | -3.2 | -8 | 9% | 3
Nc1cc(Cl)ccc1C(=O)OCC(=O)NC1CCCCC1
→ 2%[15.4 µM] | 7 | -2.0 | -3 | 20% | 5
CCOC(=O)C1CCCN(C(=O)c2cccc(S(=O)(=O)NCc3ccccc3)c2)C1 (stereo not drawn)
→ 27% | -1 | -2.6 | -11 | nt | 7
CCOCCc1nnc(NC(=O)C(CC)c2ccccc2)s1 (stereo not drawn)
→ 2% | 4 | -3.5 | -3 | 6% | 0
CC(C)(O)[C@@H]1[C@@H]2C[C@@]3(CC[C@]4(C)C(CCC5[C@@]6(C)CC[C@H](O)C(C)(C)C6CC[C@]54C)[C@@H]13)C(=O)O2 (stereo partly drawn)
→ nt | 8 | 5.9 | -10 | 2% | 5
CC1(C)C2CCC(C2)C1(C)NC(=O)C[N+](C)(C)C (stereo not drawn)
→ -22% | 8 | -3.3 | 5 | 21% | 9
CNCCCOc1ccc(C)cc1OC
→ -2%[15.4 µM] | 15 | -3.2 | -17 | -7% | 0
COc1cc(C2C(C#N)=C(N)OC3=C2C(=O)CC(C)(C)C3)c([N+](=O)[O-])cc1OC (stereo not drawn)
→ 15% | 2 | -0.3 | 28 | -20% | -1
FC(F)(F)c1ccccc1NC1=NCCC1
→ -1%[15.4 µM] | 4 | -2.1 | -4 | 15% | 1
COc1ccc(S(=O)(=O)N2CCOCC2)cc1NC(=O)c1cc(C)oc1C
→ 7% | -14 | -0.1 | 0 | 12% | -16
Cc1cc(Cl)ccc1OCC(=O)NNC(=O)c1ccco1
→ 13% | 0 | -3.3 | -12 | 5% | -15
COc1ccc(CCNC(=O)C(=O)NCC2OCCN2C(=O)c2ccc(Cl)cc2)cc1 (stereo not drawn)
→ 5% | 1 | -0.9 | -2 | 5% | 0
O=C1CC(N2CCC(c3nc4ccccc4[nH]3)CC2)C(=O)N1c1ccccc1F (stereo not drawn)
→ 2%[15.4 µM] | -3 | -2.9 | -3 | 4% | 0
Cc1cccnc1NC(=O)CCCNC(=O)c1ccc(Cl)cc1
→ -33%[inhibitor] | 3 | 1.3 | 8 | 14% | 3
CC(=O)c1ccc(OCc2cc(=O)n3ccsc3n2)cc1
→ 7% | -3 | -4.5 | 10 | -1% | 2
CC(=O)c1cccc(NC(=O)NC(C)c2ccncc2)c1 (stereo not drawn)
→ -40%[inhibitor] | -4 | -2.0 | -7 | 9% | 0
COc1cc(C2C(C#N)=C(N)OC3=C2C(=O)CCC3)ccc1OC(=O)N1CCOCC1 (stereo not drawn)
→ 4% | 14 | 1.5 | 6 | 4% | 7
COc1ccccc1CCNC(=O)/C(=C/c1cccnc1)NC(=O)c1ccccc1
→ 19% | nt | -3.7 | -9 | 3% | 10
Cc1ccc(C(=O)N2CCN(S(=O)(=O)N3CCCCCC3)CC2)cc1
→ 2% | -22 | -1.4 | 0 | 6% | 4
